Source: PubChem BioAssay (Fisher Drug Discovery Resource Center)
NPYLR7 ag: agonists of mosquito NPYLR7 receptor, primary screen, cell-based, Aedes aegypti, calcium fluorescence, mosquito biting behavior | Aedes aegypti neuropeptide Y-like receptor 7 (NPYLR7) | HEK293T NPYLR7/Galpha15, GCaMP6s calcium fluorescence | activation, % at 10 µM | actives 0.15% (n = 270,000) | AID 1259423, 2018; in the data active = activation above about 40%;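 note: 0% = vehicle and 100% = reference agonist at the receptor; some compounds past the cut are filed as inactive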
NPYLR7 ag max-min: second read-out of NPYLR7 ag, no call of its own (marks repeat the call); activation, %; measured here: Max-Min RFU normalised activation; some inactives read as strong as hits;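 span of the calcium signal over five minutes; 0% = vehicle and 100% = native peptide agonist; compound fluorescence can raise it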
* = called active by the depositor; & = joins results of further samples. This is a subset; rates above refer to the full screens.

SMILES	NPYLR7 ag	NPYLR7 ag max-min
CCCOc1ccc(N2C(=O)CC(N3CCC(C)CC3)C2=O)cc1 (stereo not given)	-8	-15
O=C(NC1CCCC1)c1ccc(N2CCC(NCCc3ccccc3Cl)CC2)cc1	-7	-9
CC(=O)Nc1ccc(S(=O)(=O)N2CCN(c3cc(C)nc(-c4cccc(F)c4)n3)CC2)cc1	-4	2
CCOC(=O)N1CCN(C(=O)c2sc3ncccc3c2-n2cccc2)CC1	-1	-7
Cc1cc(CN(C)C(=O)c2ccc3nc(C4CCCCC4)oc3c2)n[nH]1	-1	-7
CS(=O)(=O)Nc1ccc(S(=O)(=O)N2CCCCCC2)cc1	-2	-3
Cc1nc(-c2ccccc2)nc(N2CCN(C(=O)c3ccc(F)cc3)CC2)c1Cc1ccc(Cl)cc1Cl	26	20
CCOc1ncccc1CNS(=O)(=O)NCc1ccccc1	-2	-2
NC(=O)c1cccnc1N1CCCC(c2[nH]ncc2-c2ccc(F)cc2)C1 (stereo not given)	18	8
CCOCCNC(=O)CSc1nc2cc(C(=O)OCC)ccc2n1Cc1ccco1	-1	-4
CC(C)Cc1nnc(NC(=O)c2cc3c(s2)CCC3)s1	2	-1
CCOC(=O)c1cc(-c2cccc(NC(=O)c3cc(C)nn3C(C)(C)C)c2)n(-c2ccccc2C)n1	3	0
O=c1c2cc3c(=O)n(-n4cnnc4)ccc3nc2ccn1-c1cccc(Cl)c1	-2	-2
COc1ccc(Br)cc1CN1CCN(c2ccccn2)CC1	3	5
Cc1ccc(S(=O)(=O)CC(=O)Nc2sc3c(c2-c2nc4ccccc4s2)CCN(C)C3)cc1	2	-2
Cc1ccc(CNC(=O)c2ccccc2NC(=O)CN2CCOCC2C#N)cc1 (stereo not given)	5	4
c1cncc(OCc2nc(C3CC3)nn2-c2ccc3c(c2)OCCO3)c1	10	0
O=C(CSc1nc(=O)n(CCO)c2c1CCC2)Nc1ccc2c(c1)OCCO2	-8	-16
CSc1nc2c(c(=O)n(C)c(=O)n2C)n1CCCc1ccccc1	-2	-7
Cc1ccc2oc(-c3ccc(C)c(NC(=O)c4ccccc4F)c3)nc2c1	-2	-9
Cc1nc2ccc(C(=O)NCc3ccc4c(c3)OCO4)cn2c1N(C)CC1CCCCC1	-2	-4
COc1ccccc1C(=O)Nc1ccc(N2CCN(c3ccccc3OC)CC2)c(C(=O)NCc2ccccc2)c1	18	13
CC(C)(C)CC(=O)Nc1ccc(Cl)c([N+](=O)[O-])c1	12	10
O=C(Cn1cncn1)Nc1c(Cl)cc(Cl)cc1Cl	7	3
CC1CCc2nc(NC(=O)CCC3CCCO3)sc2C1 (stereo not given)	-4	-5
Cc1cc(C)n(CCNC(=O)Cn2c3c(c4ccccc42)CCC3)n1	1	-3
CCOCCCN(CC(=O)N(Cc1ccccc1)Cc1cccs1)C(=O)Nc1cccc(Br)c1	7	13
CN(Cc1nc2ccccc2n1C)C1CCCN(C2Cc3ccccc3C2)C1 (stereo not given)	1	-3
Cc1noc(C)c1CN1CCCC1C(=O)NCc1ccco1 (stereo not given)	1	-1
CCCCCn1c(N(C)Cc2ccccc2)nc2c1c(=O)[nH]c(=O)n2C	0	-5
C=C(C)COc1cccc(C(=O)NC(C)c2nncn2C)c1 (stereo not given)	-6	-17
Cc1cc2nc(C(=O)N3CCCC4(CN(C)C(=O)O4)C3)cc(C)n2n1 (stereo not given)	5	3
COc1cccc(CCN2C(=O)CC3(C2=O)C(=O)N(Cc2ccccc2)c2ccc(C)cc23)c1 (stereo not given)	8	-2
CN1CC2(CCCN(Cc3cc(=O)c4cc(Cl)ccc4[nH]3)C2)OC1=O (stereo not given)	-1	-2
CCCCCC(=O)N(CC(=O)NCC(=O)Nc1ccc(C)cc1)C(C)C	9	14
Cc1cc(C)c2cc(C(=O)N3CC(C)OC(C)C3)[nH]c2c1C (stereo not given)	3	9
CC(C)C1Cc2c(C#N)c(SCc3ccccc3)cc(N3CCOCC3)c2CO1 (stereo not given)	-1	-4
CC(=O)N1CCC(C(=O)Nc2ccc3nc(-c4ccoc4)nn3c2)CC1	15	5
CCCn1ccnc1CN1CCC2(CC1)CCN(C(=O)c1ccccc1)CC2	-4	-15
CCc1cc(=O)n2nc(N(C)C(C)C(C)c3ccc(Cl)cc3)sc2n1 (stereo not given)	-14	-14
COC(=O)C1=C(O)/C(=C\c2ccc(O)cc2OC)SC1=Nc1cccc(F)c1	-2	5
O=C(NCC1Cc2cc(F)cc(F)c2O1)c1ccccc1Cl (stereo not given)	3	0
CC(=O)Nc1ccc(S(=O)(=O)N[C@H]2CO[C@H]3[C@@H]2OC[C@@H]3n2nnnc2Oc2ccc(-n3ccnc3)cc2)cc1	-5	-13
Cc1nccn1CC(C)NC1CCN(Cc2cccnc2)CC1 (stereo not given)	20	8
COCCn1c(C)cc(C=NNc2ncnc3sc(C)c(C)c23)c1C	0	-3
c1ccc2c(c1)[nH]c1nc3ncnn3nc12	-10	-12
CCCCc1ccc(S(=O)(=O)N2CCN(c3cc(S(=O)(=O)N(C)CCc4ccccc4)ccc3OC)CC2)cc1	27	16
CCOc1cc(/C=C2\C(=O)N(c3cccc(C(=O)O)c3)N=C2C)cc(Cl)c1O	-1	-9
O=C(Cc1cscn1)N1CCC(C2(c3ccccn3)NC(=O)N(CCc3cccs3)C2=O)CC1 (stereo not given)	18	7
O=C(c1cccc(F)c1)N(Cc1ccco1)Cc1cc(Cl)ccc1OS(=O)(=O)c1ccc(F)cc1	7	11
O=C(NCc1ccccn1)c1coc(CN(Cc2ccc(F)cc2)Cc2ccccc2Cl)n1	4	15
O=C(Nc1ccc(F)cc1)c1cn(CC2CCCO2)cc2c(=O)n(-c3ccccc3)nc1-2 (stereo not given)	6	4
Cn1cccc1C1CC(c2ccccc2Cl)=NN1C(=O)CN1CCN(c2ccccc2F)CC1 (stereo not given)	10	18
Cc1cc(CSC(C)C(=O)Nc2ccc(F)c(Cl)c2)on1 (stereo not given)	5	7
Cc1ccc(C2CC(c3cccs3)=NN2C(=O)CSc2nc3c(cnn3CCO)c(=O)[nH]2)cc1 (stereo not given)	-1	0
CC1CC(=Nc2ccccc2N)CC(=O)O1 (stereo not given)	12	16
COc1cc(OC)cc(C(=O)N2CCN(c3c(Cc4ccccc4)c(C)nc4ncnn34)CC2)c1	19	11
Cc1nn(-c2cccc(F)c2)c(N2CCN(C(C)C)CC2)c1CN(C(=O)c1cc(C(F)(F)F)cc(C(F)(F)F)c1)C(C)C	10	19
S=c1[nH]nc(-c2ccc(Br)cc2)o1	-3&6	-4&6
O=C(O)c1ccc(CSc2nc(N3CCCC3)cc(C(F)(F)F)n2)cc1	-4	9
Next section:
SMILES	NPYLR7 ag	NPYLR7 ag max-min
CCc1c(C)nc(-n2nc(C)cc2C)n(CC(=O)N2CCCCCC2)c1=O	-2	-4
Cc1nnsc1CN(C)C(=O)c1csc(Cc2ccccc2)n1	4	-4
c1cnc(NC2CCN(c3ncnc4c3CCNC4)CC2)nc1	3	3
C=C(C)COc1ccc(-c2onc(C)c2-c2ccc(OC)c(OC)c2)c(O)c1	0	-5
COc1ccc(-c2cnn3c(C)c(C(=O)NCc4cccc(OC)c4)cnc23)cc1	-5	-11
CCOC(=O)c1nn(-c2ccccc2)c(=O)cc1OS(=O)(=O)c1ccccc1	-4	1
COc1ccc(-n2c(=O)[nH]c3c(C(N)=O)nc(CCc4ccccc4)nc32)cc1OC	-3	-4
CC(C)N(Cc1nccn1C)C(=O)C1CCOC1 (stereo not given)	8	5
Cc1cc2oc(=O)cc(-c3oc4ccccc4c3N)c2cc1Cl	7	4
O=C(O)c1cc(-c2ccccc2F)cc(S(=O)(=O)NCc2ccccn2)c1	5	2
CCOc1ccc(NS(=O)(=O)c2cc(C)ccc2N)cc1Br	5	2
Cc1cc(C(=O)N2CCC2(C)C(=O)NS(=O)(=O)c2ccc(C#N)cc2)nn1C (stereo not given)	7	6
COc1cc(CN2CCC(n3nccc3NC(=O)Cc3ccccc3)CC2)cc2c1OCO2	3	-2
CCOC(=O)c1[nH]c(C)c(C(=O)CN(CC)C(=O)c2cccc(Cl)c2)c1C	-6	-1
COc1ccc(S(=O)(=O)N2CCN(Cc3ncc(-c4ccc(F)cc4)o3)CC2)cc1	0	0
N#Cc1nc(-c2ccc(Cl)cc2)oc1NC1CC1	0	-3
c1coc(-c2nc3c(NCC4CC4)nccc3[nH]2)c1	-5	-11
CN(C)CCc1c[nH]c2ccc(Cn3cncn3)cc12	-2&-5	-6&-6
CCn1c(N/N=C\c2ccc(Br)cc2)nc2c1c(=O)[nH]c(=O)n2C	-6	-7
Cc1cc(C(=O)Nc2ccc(-n3nncc3C(F)(F)F)cc2)n(C)n1	2	0
CCS(=O)(=O)Nc1cc(C(=O)N(C)C(C)c2nccs2)c2c(c1)nc(-c1ccccc1)n2C (stereo not given)	11	-2
CCOc1ccc(/C=C2/N=C(c3ccccc3)N(C)C2=O)cc1OCC	2	2
O=C(c1n[nH]c2c1CCCC2)N1CCCC(c2[nH]ncc2Cc2ccccc2)C1 (stereo not given)	1	-2
CCc1cccc2c(C(CC(=O)NCCN3CCOCC3)c3cccc(OC)c3OC)c[nH]c12 (stereo not given)	2	10
COc1cc(CN2CCCC(CCc3ccc(F)cc3)C2)ccc1O (stereo not given)	-11	-9
O=C(NCCc1ccccc1)N1CCN(S(=O)(=O)c2ccccc2Cl)CC1	-4	-5
C1CCC(OCCCNC2C3CC4CC(C3)CC2C4)CC1 (stereo not given)	8	13
CC(N)c1csc(Nc2nncc3ccccc23)n1 (stereo not given)	-2	-3
CCc1cc2c(=O)n(Cc3nn4c(=O)cc(C)nc4s3)cnc2s1	4	1
CC1=Nc2cc(C)c(C)cc2NC(=O)C1	-4	-3
COc1ccc(Cn2ccnc2CN(C(=O)c2ccc(F)cc2)C(C)C)cc1	-2	-1
C=CCOC1CCCN(C(=O)c2cc(OC)cc(OC)c2)C1 (stereo not given)	-4	-3
c1ccc(-c2ccc(CNc3nn[nH]n3)o2)cc1	-10	-17
CCc1ccccc1NS(=O)(=O)c1ccc2c(c1)NC(=O)CC(=O)N2	12	1
COc1ccc(-c2cc3ccc4c(c3oc2=O)CN(C2CCS(=O)(=O)C2)CO4)c(OC)c1 (stereo not given)	3	7
O=C(Nc1ccccc1)c1ccc(Br)c(S(=O)(=O)N2CCOCC2)c1	-9	-11
COc1ccc(NC(=O)c2csnn2)c(NC(=O)C(C)C)c1	11	3
CCCC(=O)Nc1ccc(CC(=O)NCc2cnc(C)cn2)cc1	5	1
CCCCOc1ccccc1-c1cc2c(SCC(=O)Nc3ccc4c(c3)OCCO4)nccn2n1	1	-2
Cc1cccc(Cc2c(C)nc(C)nc2N2CCN(C(=O)c3ccccc3C)CC2)c1	18	23

An excerpt from above in order of length of the SMILES, highest first:
SMILES	NPYLR7 ag	NPYLR7 ag max-min
Cc1ccc(S(=O)(=O)CC(=O)Nc2sc3c(c2-c2nc4ccccc4s2)CCN(C)C3)cc1	2	-2
COc1cc(OC)cc(C(=O)N2CCN(c3c(Cc4ccccc4)c(C)nc4ncnn34)CC2)c1	19	11
COc1ccc(-n2c(=O)[nH]c3c(C(N)=O)nc(CCc4ccccc4)nc32)cc1OC	-3	-4
CCc1cccc2c(C(CC(=O)NCCN3CCOCC3)c3cccc(OC)c3OC)c[nH]c12 (stereo not given)	2	10
CCOc1cc(/C=C2\C(=O)N(c3cccc(C(=O)O)c3)N=C2C)cc(Cl)c1O	-1	-9
COc1cc(CN2CCC(n3nccc3NC(=O)Cc3ccccc3)CC2)cc2c1OCO2	3	-2
CC(C)C1Cc2c(C#N)c(SCc3ccccc3)cc(N3CCOCC3)c2CO1 (stereo not given)	-1	-4
CCOC(=O)N1CCN(C(=O)c2sc3ncccc3c2-n2cccc2)CC1	-1	-7
CCc1cc2c(=O)n(Cc3nn4c(=O)cc(C)nc4s3)cnc2s1	4	1
COCCn1c(C)cc(C=NNc2ncnc3sc(C)c(C)c23)c1C	0	-3
C=CCOC1CCCN(C(=O)c2cc(OC)cc(OC)c2)C1 (stereo not given)	-4	-3
CC(C)Cc1nnc(NC(=O)c2cc3c(s2)CCC3)s1	2	-1
N#Cc1nc(-c2ccc(Cl)cc2)oc1NC1CC1	0	-3
c1ccc2c(c1)[nH]c1nc3ncnn3nc12	-10	-12

New compounds follow.
SMILES	NPYLR7 ag	NPYLR7 ag max-min
COc1ccc(C)cc1CC(=O)Nc1ncc(C)s1	-8	-9
CCOCCOc1nc(-c2ccccc2C)n(-c2ccc(NC(=O)/C=C/c3ccccc3)cc2)n1	21	22
CCN(CCOc1ccccc1C)C(=O)c1ccc2c(c1)OCCO2	3	-7
COc1ccccc1/C(N)=N\OC(C)c1nc(C(C)(C)C)no1 (stereo not given)	7	3
O=C(CCc1nc2ccccc2s1)N1CC[C@H](CO)[C@H](O)C1	2	-3
N#Cc1cccc(NC2=NCCC2)c1	-2	-1
CCOC1CCCN(C(C)CO)C1 (stereo not given)	20	7
c1ccc(-n2cccc2CN(Cc2cccnc2)Cc2ccc3c(c2)OCO3)nc1	2	-1
CCCCCc1nnc(N)s1	11	7
O=S(=O)(Nc1ccn(Cc2cccnc2)n1)c1cccc(C(F)(F)F)c1	-2	-3
O=C(Nc1nccs1)C(Sc1ccccc1)c1ccccc1 (stereo not given)	-4	-8
OCc1nc2ccccc2n1CC(O)COc1ccccc1 (stereo not given)	4	3
O=C1N/C(=C\c2ccc(I)cc2)c2ccccc21	9	12
Cc1cccc(C2(NC(=O)CC3C=CS(=O)(=O)C3)CCCC2)c1 (stereo not given)	-3&-9	-3&-9
Cc1nc2sc3c(c2c(=S)[nH]1)CCCC3	8	6
Cc1c(NCc2cccnc2)cccc1C(=O)N1C[C@H](OC(C)C)[C@@H](O)C1	18	10
COCCCNC(=O)c1nn(-c2ccccc2)c(=O)n(Cc2ccc(C(F)(F)F)cc2)c1=O	9	11
CCN(CC)CCN(Cc1ccccc1)C(=O)C1CCC(=O)N1 (stereo not given)	1	0
CN1CCC2(CC1)CN(C(=O)c1ccc3ncsc3c1)CCN2C	2	0
